# Screens (PubChem BioAssay)
# Choline anaer gr = blocks anaerobic gram-negative growth on choline | Gram-negative bacterium anaerobic choline minimal medium, absorbance growth; active compounds read low; many inactives read as strong as hits in the columns shown | calls only | 55,000 compounds, 0.2% hits | AID 1963822;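 active means growth z-score on choline under -2 at 7 or 20 h with little or no fall on glycerol, limits in tiers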;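 further: stock transfer was 300 nL into about 50 µL; the organism is E. coli; final concentration not given here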
# Choline anaer gr early = recorded beside Choline anaer gr, whose call it bears; z-score; measured here: choline growth z-score, timepoint 1;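 score of optical density at 7 h as mean of two plates; lower means less growth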
# * = called active by the depositor; i = inactive. A portion of the library; rates above refer to the full screens.
Choline anaer gr early	Choline anaer gr	SMILES
0.21	i	O=C(CCc1ccccc1)N1CCN(Cc2cc(=O)n3nc(-c4ccccc4)sc3n2)CC1
0.49	i	Cn1c(=O)c2sccc2n2c(CCC(=O)NCCc3ccc(S(N)(=O)=O)cc3)nnc12
-0.14	i	O=C(c1ccc2ccnc(N3CCN(c4ccccc4)CC3)c2c1)N1CCCCC1
-0.59	i	COc1ccc(C2=C(C)C(N3CCC(C(=O)NC4CCCc5ccccc54)CC3)=NS2(=O)=O)cc1 (stereo unspecified)
1.2	i	O=C(NCc1ccc(F)cc1)c1cccc(NC2=NC3CS(=O)(=O)CC3S2)c1 (stereo unspecified)
-0.72	i	Cc1ccc(-c2noc(-c3cn(Cc4ccc(NS(=O)(=O)c5ccc(C)cc5)cc4)cn3)n2)cc1
0.75	i	Cc1ccccc1-c1nn2c(=O)cc(N3CCN(C(=O)Nc4ccccc4Cl)CC3)nc2s1
0.15	i	COc1ccc(-n2cnc3c(C)nc(Nc4cccc(C)c4)nc32)cc1
1.66	i	Fc1ccc(-n2ncc3c(Nc4ccc(Br)cc4)ncnc32)cc1
1.03	i	Cc1cccc(CN2C(=O)c3oc4ccccc4c3OCC2(C)C(=O)NC2CCCC2)c1 (stereo unspecified)
1.06	i	Cc1cc(C)c2c(c1)C(Cc1ccc(Br)cc1)C(=O)N2 (stereo unspecified)
-0.63	i	COc1cc([C@@H]2c3cc4c(cc3C(OC3OC5COC(C)OC5C(O)C3O)C3COC(=O)[C@@H]32)OCO4)cc(OC)c1O (stereo partly specified)
-1.54	i	O=C(NCc1cccnc1)C1CCN(S(=O)(=O)c2ccc(-c3noc(C4CC4)n3)cc2)CC1
0.71	i	Cc1cccc(-c2nn3c(=O)cc(CN4CCN(C(=O)c5cccc(Br)c5)CC4)nc3s2)c1
-0.22	i	COc1ccc(C2CCCN2C(=O)NC2CCCC2)cc1 (stereo unspecified)
-0.7	i	COc1ccc(OCc2nnc3sc(-c4ccc(OC)cc4OC)nn23)cc1
0.45	i	Cc1noc(C)c1S(=O)(=O)N1CCC(C(C)C(=O)N2CCC(N3CCCCC3)CC2)CC1 (stereo unspecified)
0.11	i	CCCC(CCC)C(=O)OC1CC2CCC(C1)[N+]2(C)C (stereo unspecified)
-1.09	i	Cc1cc(N2CCCC2)nc(Nc2ccc(NC(=O)C(C)(C)C)cc2)n1
0.13	i	Cn1c2ccccc2c2c3c(c4c5ccccc5n(CCC#N)c4c21)CNC3=O

# Exported field by field: two of the compounds above
Cc1noc(C)c1S(=O)(=O)N1CCC(C(C)C(=O)N2CCC(N3CCCCC3)CC2)CC1 (stereo unspecified)
  Choline anaer gr early: 0.45	Choline anaer gr: i

O=C(c1ccc2ccnc(N3CCN(c4ccccc4)CC3)c2c1)N1CCCCC1
  Choline anaer gr early: -0.14	Choline anaer gr: i

# The results go on:
Choline anaer gr early	Choline anaer gr	SMILES
-0.32	i	CCOC(=O)c1[nH]c(C)c(CN(Cc2ccc(OC)cc2)S(=O)(=O)c2ccccc2)c1C
-0.85	i	CCCCN1CCN(Cc2nc3nc(C)cc(N4CCOCC4)n3n2)CC1
-0.6	i	Cc1ccc(OC2CCN(S(=O)(=O)C(C)C)CC2)cc1
-1.04	i	CC(C)OCCCn1c(=O)c2cc(Cl)ccc2n2c(SCc3ccc(F)cc3Cl)nnc12
0.84	i	COc1ccc(Cl)cc1NC(=O)Nc1c(-c2cccnc2)[nH]c2ccccc12
-0.29	i	Cn1c(=O)n(C)c2cc(SC3CCCCC3)c(NC(=O)c3ccccc3Br)cc21
0.63	i	CCN(CCCNC(=O)CCc1nnc2n(Cc3ccccc3)c(=O)c3ccccc3n12)c1ccccc1
1.27	i	CCCOc1ccccc1C1Nc2ccc(C)cc2[C@H]2OCCC[C@@H]12 (stereo partly specified)
-0.11	i	Cn1nnnc1SCCNCc1ccc(OCc2ccccc2Cl)cc1
1.52	i	COc1ccc(Cn2ccc3nc(C)c(C(=O)NC4CCCCC4)cc3c2=O)cc1
0.5	i	Clc1ccc(OCc2nc3c4ccccc4ncn3n2)cc1
-0.08	i	Cc1ccc(C)c(S(=O)(=O)NCCn2c(-c3ccncc3)nc3cccnc32)c1
-0.59	i	O=C(NCc1ccc(Cl)cc1)c1cc(-c2cccnc2)nc2ccccc12
-0.42	i	Cc1csc2nc(COc3ccccc3NC(=O)C(C)Oc3ccccc3)cc(=O)n12 (stereo unspecified)
0.15	i	CS(=O)(=O)N1CC(C(=O)NC2CCCCC2)Oc2ccccc21 (stereo unspecified)
3.42	i	Cc1cc(NCC2CCCO2)n2nc(-c3ccc(Cl)cc3)c(C)c2n1 (stereo unspecified)
-0.55	i	COc1ccccc1-c1cc(C(=O)N2CCCN(c3ccc(=O)n(-c4ccc(C)c(C)c4)n3)CC2)[nH]n1
-0.61	i	CC(=O)N1CCCN(C(=O)NC(C)C)CC1
-0.54	i	O=C(c1ccsc1)N1CCCn2nc(-c3cccs3)cc2C1
-2.02	i	CN1CCc2nc(NC(=O)c3ccc(Cl)cc3)sc2C1

# Copied from the list.
# `CCOC(=O)c1[nH]c(C)c(CN(Cc2ccc(OC)cc2)S(=O)(=O)c2ccccc2)c1C` | Choline anaer gr early = -0.32
# `Clc1ccc(OCc2nc3c4ccccc4ncn3n2)cc1` | Choline anaer gr early = 0.5

# Some of these compounds in order of count of non-hydrogen atoms, largest number first.
Choline anaer gr early	Choline anaer gr	SMILES
1.27	i	CCCOc1ccccc1C1Nc2ccc(C)cc2[C@H]2OCCC[C@@H]12 (stereo partly specified)
-0.54	i	O=C(c1ccsc1)N1CCCn2nc(-c3cccs3)cc2C1
-0.61	i	CC(=O)N1CCCN(C(=O)NC(C)C)CC1

# The list goes on.
Choline anaer gr early	Choline anaer gr	SMILES
-0.95	i	COC(=O)c1sccc1NC(=O)CSc1nccn2nc(-c3ccccc3)cc12
0.13	i	CCc1ccc(OCC(O)Cn2c(CC)nc3ccccc32)cc1 (stereo unspecified)
-0.21	i	O=C1CN(Cc2ccc(Cl)cc2)S(=O)(=O)c2ccccc2N1Cc1ccccc1F
1.09	i	Cc1cc(C)c(S(=O)(=O)N2CCC(N3CCN(Cc4ccc(F)cc4)C(=O)C3=O)CC2)cc1C
0.69	i	COc1ccc(N2C(=O)c3cc(C)nn3CC2(C)C(=O)NCc2ccccc2)cc1 (stereo unspecified)
-0.88	i	O=C1COc2ccc(NC(=O)c3ccccc3F)cc2N1
1.12	i	O=C(Nc1ccccc1SCc1nnc(-c2ccccc2)o1)c1ccccc1Cl
0.46	i	CCCN1C(=O)c2ccccc2CC1(C)C(=O)NC1CCC(C)CC1 (stereo unspecified)
0.78	i	Cc1cc(-c2csc(S(=O)(=O)N3CCN(c4cc(Cl)ccc4C)CC3)c2)on1
0.41	i	Cc1ccccc1-c1nn2c(=O)cc(N3CCN(C(=O)Nc4ccccc4F)CC3)nc2s1
0.8	i	Cc1cc(OCCCS(C)(=O)=O)cc(C)c1-c1cccc(COc2ccc3c(c2)OCC3CC(=O)O)c1 (stereo unspecified)
0.31	i	NS(=O)(=O)c1ccc(CCNC(=O)CCCCCn2c(=O)[nH]c3ccccc3c2=O)cc1
-1.65	i	Cc1ccc(NC2=NC(c3ccc(C)cc3)n3c(nc(C)cc3=O)N2)cc1 (stereo unspecified)
-1.41	i	CC(C)NC(=O)c1ccc(-c2nc3cc(NS(=O)(=O)c4ccc(F)cc4F)ccc3n2C)cc1
1.24	i	O=C(CCCn1c(=O)[nH]c2ccccc2c1=O)N(Cc1ccccc1)Cc1ccccc1
-0.81	i	O=C(NCCc1csc(C2CCN(C(=O)C3CCC3)CC2)n1)C1CCC1
-0.95	i	CCc1nn(-c2ccccc2)c2c1CN(C(=O)Nc1ccc3c(c1)OCO3)C(c1ccccc1)c1cccn1-2 (stereo unspecified)
1.1	i	CN(CC(=O)NCCc1ccc(S(N)(=O)=O)cc1)S(=O)(=O)c1ccc2c(c1)CCC(=O)N2
0.68	i	CC(=O)N1CC(C)Oc2ccc(S(=O)(=O)N3CCN(Cc4noc5ccccc45)CC3)cc21 (stereo unspecified)
0.38	i	CCCc1c(OCCCOc2ccc(OCC(=O)O)cc2)ccc(CC=O)c1O
0.08	i	O=C(NCCCc1ccccc1)c1cc(-c2cccnc2)nc2ccccc12
0.32	i	COc1cc2c(=O)n(Cc3ccc(C(=O)NCCC(C)C)cc3)c(=O)n(CC(N)=O)c2cc1OC
-0.29	i	O=C(Nc1ccc2c(c1)OCO2)c1nc2nc(-c3ccc(F)cc3)cc(C(F)(F)F)n2n1
0.74	i	Cn1ncc2c3ccccc3n(CCCC(=O)N3CCc4ccccc43)c2c1=O
-0.17	i	CN(C)S(=O)(=O)c1cccc(N)c1
-0.57	i	COc1cc(OC)c(NC(=O)Nc2cccc(-c3nnc(-c4ccccc4)o3)c2)cc1Cl
-0.69	i	COc1ccc(C2CC(=O)Nc3nc(N)[nH]c(=O)c32)cc1OC (stereo unspecified)
-1.41	i	CCN1CCN(S(=O)(=O)c2ccc3c(c2)N(Cc2noc(C4CCC4)n2)C(=O)CO3)CC1
0.2	i	O=C(COc1ccccc1F)NC1CC(=O)N(c2ccc3c(c2)OCCO3)C1 (stereo unspecified)
-0.22	i	Cc1cc2c(cc1C)NC1(CCCCCC1)C(=NCCC(C)C)N2
0.02	i	Cn1c(=O)n(C)c2cc(N3CCCCC3)c(NC(=O)NCc3ccccc3)cc21
-0.22	i	Fc1ccc(-c2[nH]ncc2CN2CCCC2c2cccc(F)c2)cc1 (stereo unspecified)
-1.58	i	C=CCNC(=O)NC1CCN(C2=NS(=O)(=O)C(c3ccccc3)=C2C)CC1
0.23	i	CCCC(O)c1nc2ccccc2n1CCOc1ccc(C)cc1C (stereo unspecified)
1	i	Cc1ccc(-n2nc(N3CCCN(S(=O)(=O)c4ccc(C)c(Cl)c4)CC3)ccc2=O)cc1C
0.34	i	CCN(CC)C(=O)Cn1c(=O)c2ccccc2n2c(=S)sc(-c3ccccc3Cl)c12
0.54	i	CCn1c(=O)c(=O)n(CC(=O)NCCc2cccc(OC)c2)c2cccnc21
-0.26	i	Cc1ccc(S(=O)(=O)CC(=O)Nc2nc(-c3ccc4c(c3)OCCO4)cs2)cc1
0.97	i	CCC(=O)Nc1nc2ccc(CC(=O)Nc3ccc(OC)c(OC)c3)cc2s1
-3.01	i	CC(C)NC(=O)c1nsc(C(=O)N2CCC3(CC2)OCCO3)c1N
0.83	i	COc1cccc(C(=O)Nc2cccc(-c3ccc4ccccc4n3)c2)c1
-0.37	i	O=C(NCc1ccccc1)c1cccc(NC(=O)N2CCCCc3ccccc32)c1
-0.31	i	Cn1c(=O)c2nc(SCCC(=O)NC3CCc4ccccc43)n(C)c2n(C)c1=O (stereo unspecified)
0.6	i	CCS(=O)(=O)N1CCCN(C(=O)NC(C)C)CC1
-1.58	i	Cc1cc(N(C)C)nc(N2CCN(S(=O)(=O)c3ccc(Br)cc3)CC2)n1
-1.18	i	CN(C)CCNC(=O)c1cc2occc2c(Nc2ccc(Cl)cc2)n1
0.6	i	COc1ccc(OC)c2c1cc1n2CC(C)(C(=O)NC2CCC(C)CC2)N(CCC(C)C)C1=O (stereo unspecified)
-0.13	i	COc1ccc(NC(=O)Nc2ccc(Sc3cc(C)nc4ncnn34)cc2)cc1OC
0.18	i	Cc1onc(-c2ccccc2Cl)c1C(=O)Nc1cc2c(cc1N1CCOCC1)n(C)c(=O)c(=O)n2C
1.53	i	Cc1ccc(C)c(N2CCN(S(=O)(=O)c3cc(-c4cc(C)no4)cs3)CC2)c1
-0.07	i	CC(C)(C)C(=O)N1CCCC(c2ccnc(-c3ccc(F)cc3)n2)C1 (stereo unspecified)
-0.21	i	CCOC(=O)CNC(=O)CSc1nc2nc[nH]c2c(=O)[nH]1
0.21	i	O=C(CN1C(=O)c2ccccc2S1(=O)=O)Nc1ccccc1C(=O)NCC1CCCO1 (stereo unspecified)
0.8	i	NC1(C(=O)O)CCCCC1
-0.56	i	O=C(c1cnc2sc3c(n2c1=O)CCCCC3)N1CCCC1
-0.14	i	OC(COc1ccc(F)cc1)Cn1c(Cc2ccccc2)nc2ccccc21 (stereo unspecified)
0.3	i	O=C(NCCCN1CCC(N2CCCCC2)CC1)c1ccc2c(c1)NC(=O)C1CCCCN21 (stereo unspecified)
-0.89	i	O=C(c1nc(-c2ccccc2)n(-c2ccc(F)cc2)n1)N1CCCC1
-1.2	i	COc1ccccc1C(=O)N1CCCC(c2nc(-c3ccc(NC(C)=O)cc3)no2)C1 (stereo unspecified)
0.17	i	CCCCc1nnc2sc(-c3cnccn3)nn12

# Other compounds.
Choline anaer gr early	Choline anaer gr	SMILES
-1.55	i	COc1cccc(-c2ccc(=O)n(CCc3nc(-c4cccc(OC)c4OC)no3)n2)c1
1.25	i	O=S(=O)(Nc1ccc(-c2noc(CCC3CCCC3)n2)cc1)c1cccs1
0.27	i	CCCCN(C)C(=O)CN1C(=O)CCCc2ccccc21
-0.07	i	COc1cccc(Nc2c(C(=O)N3CCOCC3)cnc3ccccc23)c1
-0.16	i	Cc1noc(C)c1S(=O)(=O)N1CCC(C(C)C(=O)N2CCCC2)CC1 (stereo unspecified)
0.25	i	Cc1nc(Nc2ccc(Cl)cc2)c2c(C)noc2n1
-0.03	i	COc1ccc(-c2noc(CN3CCC(C(=O)NC4CCCCC4)CC3)n2)cc1OC
1.38	i	Cc1[nH]c(C)c(S(=O)(=O)N2CCCCCC2)c1-c1nc(C2CC2)no1
-1.08	i	O=C(c1ccc(NC(=O)N2CCCCc3ccccc32)cc1)N1CCN(c2ccccc2F)CC1

# Record cards, from the list above. Screens in order: Choline anaer gr early	Choline anaer gr
# COc1ccc(-c2noc(CN3CCC(C(=O)NC4CCCCC4)CC3)n2)cc1OC is entered as -0.03	i
# O=C(NCCCN1CCC(N2CCCCC2)CC1)c1ccc2c(c1)NC(=O)C1CCCCN21 (stereo unspecified) is entered as 0.3	i
# COc1ccc(N2C(=O)c3cc(C)nn3CC2(C)C(=O)NCc2ccccc2)cc1 (stereo unspecified) is entered as 0.69	i
# CCOC(=O)CNC(=O)CSc1nc2nc[nH]c2c(=O)[nH]1 is entered as -0.21	i
# CCCCN(C)C(=O)CN1C(=O)CCCc2ccccc21 is entered as 0.27	i
